Compound activity from PubChem BioAssay.
CSC inhib = cancer stem cell inhibition; cancer stem cell-like cells viability, luminescence; inhibition, % at 7.5 µM; 300,000 tested, 1.1% active;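 active means mean at 75% or more and at least half the replicates too; inconclusive means mean and replicates disagree; tested in HMLE shEcad cells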;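 further: 0% = median of negative and 100% = median of positive control wells; the first replicate is given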
HIV Env fusion = HIV envelope-mediated fusion inhibition; HeLa-JRFL Env/CEM21 cell fusion, luciferase; inhibition, % at 12.3 µM; 360,000 tested, 1.1% active; AID 651610;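 active means mean replicate inhibition score of at least 50 and every replicate individually at or above 50; inconclusive means only one of the two criteria met; inactive means mean below 50 and not all replicates reaching 50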;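 further: 0% = plate neutral controls and 100% = maraviroc near 300 nM; one replicate is shown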
PABP polyA inh = PABP-poly(A) binding inhibition | P11940 | PABP-poly(A) RNA binding, fluorescence polarization | inhibition, % at 35 µM | 290,000 tested, 1% active;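 active means 50% or more with normal probe brightness, or confirmed in later tests; inconclusive means above 50% with abnormal brightness, or retests that disagree; inactive means below 50% or failed in later tests; about a fifth of its hits are not listed in these tables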;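 further: calls also rest on retests at 20 µM and on dose response follow-up; controls were probe without protein and protein plus probe with vehicle; some compounds called inactive have numbers as strong as hits; many hits fall short of the cut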
Target sequence (P11940 whole entry, looked up): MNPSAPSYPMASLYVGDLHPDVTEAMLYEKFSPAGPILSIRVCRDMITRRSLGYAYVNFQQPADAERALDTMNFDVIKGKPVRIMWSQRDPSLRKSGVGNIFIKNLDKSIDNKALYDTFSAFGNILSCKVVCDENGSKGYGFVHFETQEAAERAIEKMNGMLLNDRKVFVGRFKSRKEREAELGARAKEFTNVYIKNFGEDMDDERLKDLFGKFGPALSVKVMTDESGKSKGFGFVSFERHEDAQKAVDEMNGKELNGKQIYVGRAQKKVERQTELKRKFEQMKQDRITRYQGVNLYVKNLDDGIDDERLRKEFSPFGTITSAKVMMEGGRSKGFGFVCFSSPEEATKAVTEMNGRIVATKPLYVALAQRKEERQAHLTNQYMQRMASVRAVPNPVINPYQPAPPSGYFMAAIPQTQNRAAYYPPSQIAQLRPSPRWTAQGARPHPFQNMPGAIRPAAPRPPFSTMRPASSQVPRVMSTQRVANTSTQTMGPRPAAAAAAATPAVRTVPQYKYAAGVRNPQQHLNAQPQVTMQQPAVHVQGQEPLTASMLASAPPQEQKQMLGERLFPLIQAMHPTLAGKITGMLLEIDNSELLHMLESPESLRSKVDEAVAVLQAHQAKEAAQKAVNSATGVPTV
MT1-MMP act inh = inhibitors of human MT1-MMP activation; P50281; HT1080 RFP-PRO-GFP cells, GFP/RFP ratio fluorescence, overnight; percent of plate control window, DMSO zero; GFP/RFP ratio change, % at 20 µM; 360,000 tested, 0.061% active; AID 651647;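 active means GFP/RFP ratio change of at least 30% with cell ATP level not reduced by more than half and red fluorescence within 50% of control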; further: strong numbers were not always called active
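Material: RFP-PRO-GFP reporter HT1080 cells. Dosing: single-point 20 µM compound, 1% DMSO. Controls: DMSO and RFP-L50D-GFP cell wells. Timing: cells overnight before dosing, compound overnight, 37 °C, 5% CO2. Measure: GFP/RFP fluorescence ratio.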
eIF4H inh = inhibitors of RNA binding by human eIF4H; Q15056; eIF4H fluorescence polarization binding assay; inhibition, % at 35 µM; 290,000 tested, 0.94% active;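 active means 50% or more with normal probe brightness, or confirmed in later tests; inconclusive means above 50% with abnormal brightness, or retests that disagree; inactive means below 50% or failed in later tests; about a fifth of its hits are not listed in these tables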;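 further: calls also rest on retests at 20 µM and on dose response follow-up; 0% = protein and probe with vehicle and 100% = probe without protein; strong numbers were not always called active; many hits fall short of the cut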
Yeast UUG start = alters start codon recognition fidelity in yeast; S. cerevisiae UUG-firefly luciferase reporter, luminescence/redox ratio; activity score, % at 18.7 µM; 350,000 tested, 0.13% active; AID 602363;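 active means replicate mean at a twofold rise or more, about +100% in these data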;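 further: firefly luciferase made from a UUG start codon reports start codon fidelity; reporter light over untreated wells divided by growth signal over untreated wells; some hits fall short of that in this replicate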
Rce1 inhib = yeast Ras-converting enzyme inhibition | Q03530 | yeast membranes, quenched prenylated peptide cleavage fluorescence | calls only | 290,000 tested, 0.27% active | AID 2563;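 active means fall in fluorescence gain of 50% or more versus controls, with final raw signal at or below 3038400; inconclusive means same 50% fall but final raw signal above 3038400; inactive means fall in fluorescence gain under 50%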;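 further: plate controls were neutral control wells for no effect and wells lacking membranes for full effect; tested at 10 µM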
Target sequence (Q03530 whole entry, looked up): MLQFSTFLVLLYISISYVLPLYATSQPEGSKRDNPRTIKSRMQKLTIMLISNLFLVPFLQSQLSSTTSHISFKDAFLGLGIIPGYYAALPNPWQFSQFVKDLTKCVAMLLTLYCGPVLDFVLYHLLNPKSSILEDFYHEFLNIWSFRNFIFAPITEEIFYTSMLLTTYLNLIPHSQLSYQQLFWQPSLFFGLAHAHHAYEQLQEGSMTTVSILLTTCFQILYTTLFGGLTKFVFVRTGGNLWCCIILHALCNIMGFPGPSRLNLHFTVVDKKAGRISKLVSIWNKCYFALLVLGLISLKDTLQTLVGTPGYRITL
eIF4H inh retest = second read-out of eIF4H inh, no call of its own (marks repeat the call); inhibition, %; compound at 20 µM; confirmation average;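 mean of two retest wells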
PABP polyA inh retest = second read-out of PABP polyA inh, no call of its own (marks repeat the call); inhibition, %; compound at 20 µM; confirmation repeats;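 mean of two retest wells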
MT1-MMP act inh RFP = second read-out of MT1-MMP act inh, no call of its own (marks repeat the call); RFP signal change, %; measured here: RFP expression control read;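 0 = vehicle wells; hits needed this value within 50% of zero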
* marks the source's active call; other numbers are inactive results; i = inactive; ? = inconclusive; . = no result given; & = joins results of further samples.

SMILES	CSC inhib	HIV Env fusion	PABP polyA inh	MT1-MMP act inh	MT1-MMP act inh RFP	eIF4H inh	Yeast UUG start	Rce1 inhib	others
COc1cccc(CNS(=O)(=O)c2ccc3c(c2)N(C)CCO3)c1	-21	5	.	-1	-4	.	2	i
CCN(CC)CCn1c(NC(=O)c2ccccc2O)nc2ccccc21	12	-19	-2	3	0	-7	-22	i
COc1ccc(N2CCN(C(=O)c3cccc(S(=O)(=O)N4CCOCC4)c3)CC2)cc1	.	-19	.	0	0	.	-3	.
COc1ccccc1NC(=O)CCN1CCCCCC1	4	-7	-1	3	4	-4	-8	i
CC(C)c1nnc(SCC(=O)N2CCOCC2)n1C	8	-24	44	2	0	-2	-4	i
Cc1cc(C#N)c(SCC(N)=O)nc1-c1ccc(F)cc1	-17	5	3	-3	0	-1	.	i
CCOc1ccc(N(C(C)=O)C2C=CS(=O)(=O)C2)cc1 (centres undefined)	3	-12	5	0	2	0	-14	i
CN(C)C(CNC(=O)CCOc1ccccc1)c1ccco1 (centres undefined)	-5	1	24	-1	4	101	.	i	eIF4H inh retest=18;PABP polyA inh retest=37
CC(C)COC(=O)n1c(SCC(N)=O)nc2ccccc21	-11	10	-2	1	0	-4	.	i
CCc1nnc(NC(=O)c2cccc(S(=O)(=O)N3CC(c4ccccc4)CC3=O)c2)s1 (centres undefined)	-5	-7	3	1	1	-2	-14	i
COC(=O)c1sc(N)c(C(=O)OC)c1COC(=O)c1c(C)noc1C	67	-5	-2	-11	-15	-9	-17	i
Cc1occc1-c1nnc(SCC(=O)Nc2nc(C(C)(C)C)cs2)o1	26	.	1	-7	-17	-5	0	i
COc1cccc(NC(=O)CCCn2c(=O)[nH]c3ccccc3c2=O)c1	14	-27	3	3	0	-5	-3	i
Cc1ccc([C@H]2C(C(=O)O)=CC[C@@H](c3ccc(Cl)cc3)N2S(=O)(=O)c2ccc(C)cc2)cc1	.	5	.	-7	-1	.	-13	.
COc1ccc(-c2c(C)nn3c(N4CCC(C(=O)N5CCCCC5)CC4)cc(C)nc23)cc1OC	-8	8	17	-1	-6	3	-6	i
Cc1ccccc1CSCCNC(=O)c1ccccc1	3	-52	0	3	1	-11	2	i
CCOc1ccccc1N(CC(=O)Nc1cc(OC)ccc1OC)S(=O)(=O)c1ccccc1	14	14	-9	0	-11	-5	-4	i
O=C(Nc1ccon1)c1csc2c1CCCC2	-1	.	1	-1	-1	-3	-11	i
CC1CN(C2CCCCC2)c2nc3c(c(=O)[nH]c(=O)n3C)n2C1 (centres undefined)	-12	.	7	16	12	1	1	i
Cn1c2ccc(F)cc2c2nnc(NN)nc21	.	-146	-2	12	5	-5	-25	.
CC(C)(CC(=O)O)CC(=O)N1CCN(c2cc(C(F)(F)F)nc3ccccc23)CC1	-11	.	-2	1	-1	-8	-6	i
O=C(Nc1ccncc1)c1ccc2c(c1)OCCO2	1	.	-3	-1	-7	-5	-10	i
CC1(Oc2ccccc2-c2ccno2)CCN(Cc2csc3ccccc23)C1 (centres undefined)	.	5	.	-1	2	.	-5	.
OCCC1CN(Cc2ccc(-c3ccco3)cc2)CCN1Cc1ccsc1 (centres undefined)	31	-23	-6	2	-4	-4	.	i
CN(C)S(=O)(=O)c1ccc2c(c1)c(=O)c(C(=O)NCCCN1CCCCCC1)cn2C	-18	-13	-22	-3	1	11	-7	i
SMILES	CSC inhib	HIV Env fusion	PABP polyA inh	MT1-MMP act inh	MT1-MMP act inh RFP	eIF4H inh	Yeast UUG start	Rce1 inhib	others
CSc1nc(N)nc(SCC(=O)Nc2cccc(F)c2)c1C#N	16	-1	10	9	-15	1	0	i
Cc1ccc(C)c(NC(=O)CSc2nnc(-c3n[nH]c4ccccc34)o2)c1	8	-2	-3	0	2	-5	-3	i
Cc1ccc(/C=N/NC(=O)CSc2nnc(-c3ccc(Cl)cc3)n2-c2ccc(Cl)cc2)o1	8	27	0	1	5	1	.	i
COc1ccc(C2SCC(=O)N2c2ccc(C)cc2)cc1 (centres undefined)	-11	-5	8	-2	-5	-1	19	i
Cc1ccc(OCCNC(=O)c2ccccc2F)cc1	0	-15	2	-3	0	-2	-5	i
CCCC1=C(C(=O)OCC)C(c2ccc(NC(C)=O)cc2)NC(=O)N1 (centres undefined)	7	-12	1	12	3	-4	-5	i
CCOC(=O)CNC(=O)CNC(=O)c1ccc(OCC(C)C)cc1	-15	.	-1	0	3	-2	0	i
c1ccc(-c2ccnc3ncnn23)nc1	-29	7	-2	4	9	-7	.	i
Cc1ccc(OC(C)C(=O)Nc2ccc(S(=O)(=O)Nc3cc(C)on3)cc2)cc1 (centres undefined)	.	-12	9	3	1	-4	-7	i
O=C(COc1cccc(C(F)(F)F)c1)Nc1nnc(C2CC2)s1	-2	-21	.	7	2	.	.	.
O=C(C[C@H]1CC[C@@H]2[C@H](COC[C@@H](O)CN2C(=O)C2CC2)O1)NCc1ccccc1Cl	.	?	.	2	7	.	4	.
O=C(Nc1ccc2oc(-c3ccncc3)nc2c1)c1ccccc1F	0	.	11	7	1	-19	4	i
CCCOc1ccc(C(=O)Nc2ccc(S(=O)(=O)N3CCN(C)CC3)cc2)cc1	-21	-10	0	5	-8	-14	-7	i
COc1ccc(S(=O)(=O)NCC2CCCN(C(=O)CN3CCCCC3)C2)cc1 (centres undefined)	-6	7	-2	-4	-1	-2	.	i
O=C(CCN1C(=O)/C(=C/c2ccccc2Cl)SC1=S)N1CCOCC1	9	-9	-4	-2	1	-2	-7	i
COC(=O)c1cn(-c2ccccc2)c(=O)c2ccccc12	7	-10	-2	-2	-2	7	-13	i
c1ccc2oc(-c3csc(NCC4CCCO4)n3)cc2c1 (centres undefined)	0	-158	4	-2	-6	-1	.	i
COc1ccc(C(=O)CN2CCN(c3ccc(F)cc3)CC2)cc1OC	-3	.	3	2	5	-11	.	i
COc1cc2c(cc1OC)CN(C(=O)/C=C/c1ccccc1[N+](=O)[O-])CC2	-11	20	5	2	-6	8	-12	i
CN(C)S(=O)(=O)c1ccc(Nc2ccc(-c3ccc4c(c3)OCCO4)nn2)cc1	-11	.	-12	9	-3	-4	-17	.
COc1ccc(S(=O)(=O)N2CCOCC2)cc1OC	9	15	0	-1	0	4	.	i
Cc1nc2sccn2c(=O)c1S(=O)(=O)Nc1ccc(N2CCN(S(C)(=O)=O)CC2)cc1	-1	4	2	-4	-2	-4	5	i
CN1C(=O)C(C)(C)c2cc(S(=O)(=O)N3CCCC(C(=O)NCc4ccc(Cl)cc4)C3)ccc21 (centres undefined)	2	25	-12	-12	-18	-5	1	i
CN(C(=O)CSc1nc2ccccc2c(=O)n1-c1ccc(F)cc1F)C1CCS(=O)(=O)C1 (centres undefined)	4	16	.	-7	-2	.	2	.
CN1CCC(=NNC(=O)C(=O)Nc2ccccc2F)CC1	-1	-2	-8	6	7	-5	-11	i
SMILES	CSC inhib	HIV Env fusion	PABP polyA inh	MT1-MMP act inh	MT1-MMP act inh RFP	eIF4H inh	Yeast UUG start	Rce1 inhib	others
Cc1cccc(NC(=O)Cn2nnc(-c3ccc(CN4CCCC4)cc3)n2)c1C	3	-19	-11	-5	-1	-14	-23	i
COc1ccc(/C(O)=C2/C(=O)C(=O)N(c3ncccn3)C2c2ccc(OC)cc2)cc1 (centres undefined)	-5	6	2	1	8	-2	.	.
O=C(NCCc1nc2ccccc2[nH]1)c1ccc(F)cc1	.	.	4	1	2	-1	-22	i
COc1cccc(NC(=O)N(C)C[C@@H]2OCc3cnnn3CCCC(=O)N([C@H](C)CO)C[C@@H]2C)c1	.	7	.	-1	1	.	-12&2	.
COCCn1c(SCC(=O)OC(C)C)nnc1-c1ccccc1	-1	-35	27	-2	1	-4	-5	i
NC(=O)c1ccc(NC(=O)CN2CCN(Cc3ccccc3)CC2)cc1	5	14	2	1	3	-3	-9	i
Cc1cc(=O)oc2cc(OC(=O)c3nn(C(C)C)c(=O)c4ccccc34)ccc12	-6	-6	10	-2	6	-5	.	i
COc1ccc(-c2nnc3sc(C4CCCCC4)nn23)cc1OC	2	-11	-10	3	-5	-10	-16	i
CN1CCC(N(C)C(=S)Nc2ccc(SC(F)F)cc2)CC1	11	.	-8	-1	0	-10	-11	i
COc1ccccc1-n1cn[nH]c1=S	-14	-24	-4	-1	1	-2	-7	i
O=C(Nc1ccccn1)c1ccc([N+](=O)[O-])cc1Cl	-10	-59	-4	-2	-1	-9	.	i
CC1(C)CCCC(C)(C)N1CC(O)COCCOc1ccc(Br)cc1 (centres undefined)	.	-3	-19	4	7	-3	.	i
Cc1ccc(/C=C2\SC(=S)N(CC(=O)Nc3ncc(Cc4ccccc4Cl)s3)C2=O)cc1	4	-48	2	.	.	9	.	i
Cc1cc2c3c([nH]c2cc1S(=O)(=O)NCc1ccc(CN2CCCCCC2)o1)CCCC3=O	-22	-1	13	4	1	16	-4	i
CC(=O)Nc1ccc(NC(=O)CSc2ccc(-c3ccco3)nn2)cc1	-4	14	-19	4	2	85	.	i	eIF4H inh retest=-6;PABP polyA inh retest=4
CCC(C)NC(=O)N[C@@H](CCSC)C(=O)O (some centres undefined)	-21	.	8	2	-2	0	-3	i
O=C(NCC1CCCCC1)c1cccc(-c2ccc(O)cc2)c1	53	-8	9	10	-6	0	-14	i
O=C(CN(c1ccc(F)cc1)S(=O)(=O)c1ccc2c(c1)OCCO2)NCc1ccncc1	-3	-52	-7	2	0	-15	-3	i
CCc1ccc(-n2c(SCC(=O)Nc3cc(C)[nH]n3)nc3[nH]ncc3c2=O)cc1	-11	.	7	0	0	-5	-23	i
C=CC[C@H]1C(C(=O)OCC)=CC[C@@H](c2ccccc2)N1S(=O)(=O)c1ccc(C)cc1	.	5	.	-13	-14	.	-5	.
O=C(c1cccc(S(=O)(=O)N2CCCc3ccccc32)c1)N1CCN(c2ccccc2)CC1	-6	20	.	-1	-1	.	-16	.
COC(=O)c1ccc(S(=O)(=O)c2ccc(Cl)cc2)c(N)c1	13	25	-2	2	-1	-11	5	i
Cc1ccc(CCNS(=O)(=O)c2cc(Br)cnc2N)cc1	-7	6	.	-2	-1	.	-20	i
CC(=O)c1sc(Nc2ccccc2)nc1C	.	-32	.	4	2	.	-14	.
CCOc1ccccc1NC(=O)CSc1nnnn1-c1ccccc1	-3	.	4	3	1	-2	.	i
SMILES	CSC inhib	HIV Env fusion	PABP polyA inh	MT1-MMP act inh	MT1-MMP act inh RFP	eIF4H inh	Yeast UUG start	Rce1 inhib	others
COCCNc1nnc(Cc2ccc(OC)c(OC)c2)c(=O)[nH]1	2	9	3	-2	5	-8	-4	i
Cc1ccn2c(=O)nc(SCC(=O)c3ccc(Cl)cc3)nc2c1	-13	0	.	-2	-3	.	-15	i
COc1cccc(C(=O)OCCCOC(=O)c2cccc(OC)c2OC)c1OC	-3	-3	-7	0	-1	-1	20	i
Cc1ccc(S(=O)(=O)C(C)C(=O)NCCS(=O)(=O)c2ccc(Cl)cc2)cc1 (centres undefined)	-5	13	20	-1	-2	4	.	i
CCc1ccc(CCC(=O)Nc2nccs2)o1	-5	-8	-4	0	-10	3	-9	i
COCCCNC(=O)Cn1cc(C(C)=O)c2ccccc21	-8	.	-3	3	0	-4	.	i
Cc1csc(CNC(=O)c2ccc(OC3CCN(CCc4ccccc4)CC3)cc2)n1	-7	-16	10	0	2	3	-14	i
COc1ccc(CNC(=O)Cn2ccc3cc(S(=O)(=O)N4CCCC4)ccc32)cc1OC	4	6	9	-1	-3	-7	7	i
